Source: PubChem
TSHR ag = agonists of human thyroid stimulating hormone receptor; P16473; HEK293-CNG-TSHR cells (CNG channel as cAMP sensor), membrane potential dye, cAMP; Potency, µM (doses to about 57.1 µM), for inactives: top-dose activation, usual class: activators; hit rate 0.48% among 73,000; AID 926; active = well fitted activation curve of enough size with the parental cells flat; inconclusive = any curve in the parental cells; inactive = parental cells flat and receptor cells flat or falling; further: potency means the concentration at half of the fitted maximal effect; % of control where 0% means no effect; weak receptor curves with flat parental cells got no call and are not listed
Target sequence (P16473 whole entry, looked up): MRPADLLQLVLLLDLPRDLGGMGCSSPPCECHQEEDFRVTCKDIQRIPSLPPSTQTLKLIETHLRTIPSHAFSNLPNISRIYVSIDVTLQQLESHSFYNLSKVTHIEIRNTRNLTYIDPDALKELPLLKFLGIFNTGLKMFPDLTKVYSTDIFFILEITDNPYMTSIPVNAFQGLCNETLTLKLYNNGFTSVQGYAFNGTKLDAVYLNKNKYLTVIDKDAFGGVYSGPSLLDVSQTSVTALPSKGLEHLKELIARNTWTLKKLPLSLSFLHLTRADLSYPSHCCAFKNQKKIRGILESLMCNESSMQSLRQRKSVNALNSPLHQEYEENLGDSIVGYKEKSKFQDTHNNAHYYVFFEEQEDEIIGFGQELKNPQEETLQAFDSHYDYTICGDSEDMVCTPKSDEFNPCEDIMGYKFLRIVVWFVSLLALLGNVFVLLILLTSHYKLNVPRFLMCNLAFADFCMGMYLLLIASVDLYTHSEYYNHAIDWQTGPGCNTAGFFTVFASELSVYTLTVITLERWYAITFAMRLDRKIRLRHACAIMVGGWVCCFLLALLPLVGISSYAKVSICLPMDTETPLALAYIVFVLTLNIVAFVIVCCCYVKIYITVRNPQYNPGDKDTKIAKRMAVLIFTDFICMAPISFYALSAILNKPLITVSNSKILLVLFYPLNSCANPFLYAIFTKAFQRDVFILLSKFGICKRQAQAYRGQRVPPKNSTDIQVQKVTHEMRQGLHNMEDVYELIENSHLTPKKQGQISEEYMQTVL
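cAMP rise detected as CNG-channel membrane depolarization by fluorescent dye (emission 590 nm), 30 min after compound, following 60 min dye loading containing 100 uM RO 20-1724 at room temperature. Cells: TSHR/CNG HEK 293, with parental CNG HEK 293 as control.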
A488 fluor = compound autofluorescence in A488 spectral region. compound autofluorescence, A488 spectral region, dye equivalency; hits give high values. max dye equivalency, M. hit rate 0.1% among 59,000; active = above 10 nM dye equivalent; inconclusive = 1 to 10 nM; inactive = 1 nM or less; about half of its hits are not listed in these tables;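 further: highest value over a series up to 38 µM; compound alone in buffer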
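Intrinsic compound fluorescence is measured in 100 mM Tris buffer at pH 8.0 following 15 min incubation at room temperature. Intensities at 480 nm excitation/540 nm emission are calibrated to an on-plate A488 concentration series, giving dye-equivalent concentrations.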
A647 autofl = A647 region autofluorescence | max dye-equivalent concentration, M | 59,000 tested, under 10 active | Compound fluorescence, A647 channel (570/671 nm), Tris buffer; active means above 1 µM dye equivalent; inconclusive means 0.1 to 1 µM; inactive means 0.1 µM or less;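 further: values scaled relative to a standard on each plate; highest value over a series up to 38 µM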
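Each compound's intrinsic fluorescence at 570 nm excitation and 671 nm emission is measured across its concentration series in 100 mM Tris, pH 8.0, after 15 min at room temperature, and reported relative to an A647 curve.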
Resorufin fluor = compound fluoresces in the resorufin spectral region; hit rate 0.04% among 59,000; max dye-equivalent concentration, M; Compound fluorescence, resorufin region 547/598 nm, buffer; hits give high values; active = above 10 nM dye equivalent; inconclusive = 1 to 10 nM; inactive = 1 nM or less; a few of its hits are not listed in these tables; further: highest value over a series up to 38 µM
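Tris 100 mM pH 8.0; compound added, 15 min RT; CCD imager read, ex 547 nm/em 598 nm; signal normalized to resorufin standard curve (six concentrations per plate) as dye-equivalent concentration.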
AID923 = qHTS Assay for Allosteric/Competitive Inhibitors of Caspase-1: Spectroscopic Profiling in AFC Spectral Region. compound fluorescence, AFC spectral region (405/520 nm); almost no hit is shown here. Potency, µM (titrated, usually from 57.5 µM), without a hit: at the top dose fluorescence increase, actives largely listed as activators. hit rate 1.1% among 75,000; active means well fitted activation curve with a large enough effect; inconclusive means small, poorly fitted or top-dose-only effect;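 further: potency means the concentration at half of the fitted maximal effect; 0% is about no effect; scaled to a free AFC standard on each plate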
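Titrations up to 57 uM read every 20 sec for 3 min (405/520 nm) with 50 nM caspase 1 and 5 uM Ac-WEHD-AFC, pH 7.5 HEPES buffer. Fluorescence-vs-time intercept gave baseline, scaled against on-plate AFC standard.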
* marks the source's active call; other numbers are inactive results; i = inactive; ? = inconclusive; . = no result given; [ ] = dose if it differs, or a comment. An excerpt (hit frequency here may not be typical).

structure | AID923 | Resorufin fluor | A647 autofl | A488 fluor | TSHR ag
CC(OC(=O)CCc1nc2ccccc2c(=O)[nH]1)C(=O)NCc1ccc2c(c1)OCO2 (stereo not given) | -0.4% | i | 3.3e-08 | i | 1.2%[11.4 µM]
COCC(=O)N1CCC2(CCN(Cc3ccccc3)CC2)CC1 | 0.6% | i | 2.8e-09 | i | 5.4%
O=C(O)c1ccc(N2CCCC2=O)cc1 | -0.5% | i | 4.7e-09 | i | -2.7%
Cn1c(=O)oc2cc(S(=O)(=O)Nc3cccc4c3CCCC4)ccc21 | 0.8% | i | 2.4e-09 | i | .
CCOC(=O)Cc1csc(NC(=O)CSc2nnc(-c3ccc(C)cc3)o2)n1 | 0.7% | i | 2.89e-08 | i | 1.3%
CCC(NC(=O)c1ccccc1NC(=O)c1ccco1)C(=O)O (stereo not given) | 1.6% | . | . | . | -2.8%
COC(=O)c1ccc2c(=O)n(Cc3ccco3)c(SCC(=O)Nc3ccc(C)c(Cl)c3)nc2c1 | -1.1% | i | 3.5e-09 | i | 10.0%
Cc1nc2ccc(F)cc2cc1C(=O)NCc1ccco1 | 0.1% | i | 3.12e-08 | i | -5.0%
O=C1CCCC2=C1C(c1cn(-c3ccccc3)nc1-c1cccs1)c1c([nH]c(=O)[nH]c1=O)N2 (stereo not given) | 1.2% | i | 2.36e-08 | i | 18.4%
Cc1cccc(C)c1NC(=O)Nc1ccc(S(N)(=O)=O)cc1 | -2.3%[11.5 µM] | i | 6.8e-09 | i | 4.2%[11.4 µM]
O=C1C2C3C=CC(O3)C2C(=O)N1CC(O)c1ccccc1 (stereo not given) | -4.6% | i | 2.17e-08 | i | 25.5%
Cc1cc2n(n1)C(c1sccc1C)Nc1ccccc1-2 (stereo not given) | -0.1% | i | 1e-09 | i | 17.5%
CN1/C(=C\C(=O)COc2ccc3c(c2)OCO3)C(C)(C)c2ccccc21 | 9.0% | i | 1.59e-08 | i | ?
COc1ccc2[nH]c(C(=O)O)c(CCC(=O)O)c2c1 | -2.6% | i | 1.05e-08 | i | 0.9%
O=C(CN1CCN(C(=O)c2cccc(F)c2)CC1)Nc1ccccc1F | 0.5% | i | 1e-09 | i | -1.5%
Cc1ccc(Nc2ncc3c(n2)CC(c2ccco2)CC3=O)c(C)c1 (stereo not given) | 3.3% | i | 3.11e-08 | i | 12.2%
CCC(c1nnnn1Cc1cccs1)N1CCN(c2nc3ccccc3s2)CC1 (stereo not given) | 0.3% | i | 4.2e-09 | i | ?
CSc1ccccc1-n1nnnc1SCC(=O)NCc1cccs1 | 1.4% | i | 2.79e-08 | i | .
O=c1[nH]cnc2scc(C3COc4ccccc4O3)c12 (stereo not given) | -0.2% | i | 4.4e-09 | i | 2.7%
O=C(COC(=O)C1CC(=O)N(c2ccccc2)C1)c1ccccc1 (stereo not given) | 1.8% | . | . | . | 3.7%
CN(C)c1oc(-c2ccccc2)nc1C#N | -0.1% | i | 3.1e-08 | i | 0.5%[11.4 µM]
Nc1nc(N)c2nn(-c3ccc(C(=O)O)cc3)nc2n1 | 4.8%[11.5 µM] | i | 2.6e-09 | i | -1.8%[11.4 µM]
CC(=O)c1cc(F)c(N2CCN(C(=O)Cc3ccccc3)CC2)cc1C | 3.3% | i | 5.7e-09 | i | 3.8%
CCN(CC)Cc1c(C(=O)OC)nnn1-c1nonc1N | 0.3% | i | 1e-09 | i | ?
CCC(c1nnnn1C(C)(C)CC)N(CCCO)Cc1cc2cc(C)cc(C)c2[nH]c1=O (stereo not given) | 13.7% | i | 2.8e-09 | i | ?
O=C(NCc1ccccc1)c1cccc(S(=O)(=O)N2CCOCC2)c1 | -0.3% | . | . | . | -2.9%
O=C(Cn1ncc2c(=O)oc3ccccc3c21)N1CCCN(Cc2ccccc2F)C1 | 1.9% | . | . | . | 5.4%
Cc1cc(C)n2cc(CSc3nnc(-c4ccccc4)o3)nc2n1 | 1.7% | i | 1e-09 | i | 4.7%
COCc1nnc(NC(=O)C(C)C)s1 | 1.5% | i | 9.2e-09 | i | 0.7%
O=C(NCCN1CCCC1)c1ccc(CS(=O)(=O)c2c(Cl)cccc2Cl)o1 | 0.5% | . | . | . | ?
O=S(=O)(c1ccccc1)N1C2CCC1CC(O)(c1cccnc1)C2 (stereo not given) | 0.4% | i | 3.6e-08 | i | 13.4%
O=C(CSc1nnc(CNC(=O)c2ccccc2F)o1)NCCc1ccccc1 | 1.3% | i | 1.8e-09 | i | 12.3%[11.4 µM]
C/C=C/COC(=O)c1[nH]c2c(c1C)C(=O)CC(c1ccc(N(C)C)cc1)C2 (stereo not given) | -1.9% | . | . | . | 12.2%
CCCn1c(=O)c(C(=O)Nc2cnccn2)c(O)c2ccccc21 | -0.9% | i | 3.73e-08 | i | 13.7%
CC(C)N1C(=O)C2C(C(=O)NC3CCCCC3)C3C=CC2(O3)C1C(=O)NC1CCCCC1 (stereo not given) | 0.0% | i | 1e-09 | i | ?
C=CCOc1nc2c(c(=O)n(C)c(=O)n2C)n1Cc1ccccc1Cl | . | i | 5.06e-08 | i | .
CN(C)c1ccc(C=NCC2(O)CCOC(C)(C)C2)cc1 (stereo not given) | . | i | 3.4e-09 | i | .
CCN1CCN(C(=O)Nc2ccc(Cc3ccc(NC(=O)N4CCN(CC)CC4)cc3)cc2)CC1 | 1.3% | . | . | . | -6.7%
COc1ccc(N2CCN(C(=O)Cn3nnc(-c4ccc(OC)c(OC)c4)n3)CC2)cc1 | 0.1% | i | 6.2e-09 | i | 0.9%
COc1ccc(OC)c(NC(=O)CN(c2ccc(C)cc2)S(=O)(=O)c2c(C)noc2C)c1 | 1.9% | i | 1.62e-08 | i | ?
CCOC(=O)c1c(NC(=O)CNCC(O)CO)sc(C)c1C (stereo not given) | 0.3% | i | 5.6e-09 | i | 9.2%
CN1C(=O)c2ccc(NC(=O)C3CCCCC3)cc2C1=O | 2.0% | i | 7.2e-09 | i | -4.7%
C=CCNS(=O)(=O)c1sccc1/C=N/O | 0.2% | . | . | . | 0.4%
COC(=O)[C@@]1(Cc2ccccc2)[C@H]2c3cc(C(=O)N4CCCC4)n(Cc4ccc(O)c(OC)c4)c3C[C@H]2CN1C(=O)c1ccccc1 | -0.3% | . | . | . | ?
CN(CC(=O)NC1CCCCC1)S(=O)(=O)c1cccc2nsnc12 | 0.9% | i | 2.2e-08 | i | 2.8%

Record cards (already shown).
CN(CC(=O)NC1CCCCC1)S(=O)(=O)c1cccc2nsnc12 in the list: AID923: 0.9%; Resorufin fluor: i; A647 autofl: 2.2e-08; A488 fluor: i; TSHR ag: 2.8%
CN(C)c1ccc(C=NCC2(O)CCOC(C)(C)C2)cc1 (stereo not given) in the list: AID923: .; Resorufin fluor: i; A647 autofl: 3.4e-09; A488 fluor: i; TSHR ag: .

(further entries)
structure | AID923 | Resorufin fluor | A647 autofl | A488 fluor | TSHR ag
COc1cc(NC(=O)CCc2ccccc2)c(C(=O)O)cc1OC | 1.9% | . | . | . | 10.6%
S=C1N[C@H](c2ccccc2)N[C@H](c2ccccc2)S1 | -2.4%[11.5 µM] | i | 6.2e-09 | i | ?
CC1(C)OC(=O)N(Cc2ccco2)C1(C)O (stereo not given) | 0.4% | i | 1e-09 | i | 1.5%
CCN1CCCC1CNc1ncnc2c1[nH]c1ccc(Cl)cc12 (stereo not given) | -0.7% | i | 4.6e-09 | i | -8.5%
O=C(COc1ccccc1)N(Cc1cc2ccccc2[nH]c1=O)CC1CCCO1 (stereo not given) | -1.0% | i | 1.52e-08 | i | 9.3%
O=C(O)c1ccc(COCC(F)(F)F)cc1 | -1.1% | i | 3.23e-08 | i | 9.4%
O=C(CCNC(=O)Cn1cnc2ccccc2c1=O)NCCC1=CCCCC1 | -0.4% | i | 6.3e-09 | i | 10.5%
Cc1ccc(Cl)cc1N1CCN(C(=O)C2CCCN(S(=O)(=O)c3cnc[nH]3)C2)CC1 (stereo not given) | -5.2% | . | . | . | 2.9%
COCCn1nnnc1CN1CCN2CCCC2C1 (stereo not given) | 0.4% | i | 3.7e-09 | i | -3.4%
COc1cccc(-c2cncnc2NCc2ccccc2)c1 | -2.6% | i | 9.4e-09 | i | ?
COC(=O)c1c(C(=O)OC)c2n(c1C)CCC2 | 0.7% | . | . | . | -1.8%
COc1ccc(C2=NOC(C(=O)NC(C)C)C2)cc1 (stereo not given) | -0.4% | i | 1e-09 | i | -4.4%
CCC(NC(=O)Nc1nnc(C(F)(F)F)s1)(C(F)(F)F)C(F)(F)F | . | i | 3.54e-08 | i | .
Cn1c(/N=C/c2cc(Cl)ccc2O)nc2ccccc21 | 2.7% | i | 1e-09 | i | -14.3%
O=C(CCNS(=O)(=O)c1cccc2nsnc12)NCc1cccs1 | 1.1% | i | 1e-09 | i | 5.0%
CCOC(=O)CN1CC23C=CC(O2)C(C(=O)NC2CCCC2)C3C1=O (stereo not given) | 2.5% | . | . | . | 6.2%
CCOc1cc(-c2noc(N)c2C(=O)OC)cc(OCC)c1OCC | 1.5% | i | 4.24e-08 | i | ?
CCOC(=O)c1sc(NC(=O)c2noc3c2CCCC3)c(C(=O)OCC)c1C | 1.3% | . | . | . | -6.4%
COc1cccc(C(=O)N2CCN(C(=O)c3cccs3)CC2)c1OC | -1.0% | i | 1.54e-08 | i | 1.3%
COc1ccccc1CNC(=O)C1CCN(Cc2nc(-c3cccc(Cl)c3)oc2C)CC1 | 0.3% | i | 3.74e-08 | i | -33.8%[inhibitor]
O=C(CCNS(=O)(=O)c1ccccc1F)NCc1ccc2c(c1)OCO2 | -0.2% | i | 4.4e-09 | i | ?
CC(C)CN1CC2(CCN(C(=O)c3csnn3)CC2)C1 | 2.4% | i | 4.4e-09 | i | 8.8%
O=C(NCCN1CCOCC1)c1ccc(=O)oc1 | . | i | 2.55e-08 | i | .
CCC(=O)c1ccc(OCC(O)CN2CCN(S(=O)(=O)N3CCCCC3)CC2)cc1 (stereo not given) | -0.7% | i | 2.82e-08 | i | ?
O=C(c1ccc(NC2=NC3CS(=O)(=O)CC3S2)cc1)N1CCc2ccccc2C1 (stereo not given) | -2.1% | . | . | . | -4.8%
CCOc1ccc(Nc2oc(-c3cccs3)nc2C#N)cc1 | 2.2% | i | 1.56e-08 | i | -28.4%
COc1cccc(-n2c(Cc3cc(=O)[nH]c(=O)[nH]3)nnc2SCC(=O)Nc2ccccc2)c1 | -0.8% | . | . | . | 6.4%
CCC(Sc1nc2c(cnn2-c2ccc(Cl)cc2)c(=O)[nH]1)C(=O)OC (stereo not given) | 3.2% | . | . | . | ?
O=C(COC(=O)c1cnccn1)c1ccc(OC(=O)c2ccccc2)cc1 | 0.5% | . | . | . | -2.4%[11.4 µM]
CC=C(/C(=C/C)c1ccc(O)cc1)c1ccc(O)cc1 | -2.2%[25.7 µM] | i | 4.42e-08 | i | -12.9%[25.6 µM]
COc1ccc2cc(C(c3nnnn3CC3CCCO3)N3CCOCC3)c(=O)[nH]c2c1 (stereo not given) | 0.5% | i | 4e-09 | i | -1.2%
C=CCc1cccc2cc(C(=O)N3CCN(C(=O)c4ccco4)CC3)c(=O)oc12 | 1.4% | i | 2.77e-08 | i | 4.1%
Cc1ccc(C)c(NC(=O)CCN2CCOCC2)c1 | 2.5% | i | 1.64e-08 | i | -16.2%
CCOc1cc(S(=O)(=O)NCCc2cccc(C)c2)c(OCC)cc1-n1cnnn1 | -0.6% | i | 1.57e-08 | i | 26.3%
Cc1ccc2c(c1)nnn2C1CCN(S(=O)(=O)c2ccc(C(=O)NC3CCCC3)cc2)CC1 | 1.6% | i | 3.4e-08 | i | ?
CCOC(=O)c1cc(=O)n2[nH]c(-c3ccc(C)cc3)cc2n1 | 15.2% | i | 2.56e-08 | i | ?
Cc1ccc(NC(=O)CCn2nc(C)cc2C)c(C)c1 | -0.8% | i | 3.85e-08 | i | .
